Screening data deposited in PubChem BioAssay by National Center for Advancing Translational Sciences (NCATS).
VACV mCherry inh = vaccinia inhibition (mCherry reporter); Potency, µM (top dose mostly 36.5 µM), inactives show at the highest dose activity change, negative = inhibition, actives largely listed as inhibitors; AID 720579; actives 0.63% (n = 310,000); Vaccinia virus mCherry reporter infection, fluorescence; about a quarter of the inactives have no number; active = well fitted inhibition curve with a large enough effect; inconclusive = small, poorly fitted or top-dose-only effect; inactive = no such curve, though single readings can be large or run the other way; tested in A549 cells; also: nearly all actives have a fitted effect of over 35% in size; inactives centre near -10
VACV Venus inh = inhibitors of vaccinia virus (Venus reporter). AID 720580. actives 0.46% (n = 330,000). Potency, µM (series often up to 36.5 µM), without a hit: at the highest dose activity change, negative = inhibition, most hits filed as inhibitors. Vaccinia virus Venus reporter expression, fluorescence; active means well fitted inhibition curve with a large enough effect; inconclusive means small, poorly fitted or top-dose-only effect; inactive means no such curve, though single readings can be large or run the other way; tested in A549 cells; also: nearly all actives have a fitted effect of over 30% in size; inactives centre near -10
* hit, by the source's call; i = inactive; ? = inconclusive; nt = no result given; & = joins results of further samples; [ ] = remark or other dose. % is scaled to controls: 0 for no effect and ±100 for the full control effect; potency is read from the fitted curve at half-maximal effect.

SMILES	VACV mCherry inh	VACV Venus inh
CN(CC(=O)Nc1c(Cl)cccc1Cl)C(=O)c1cc(S(=O)(=O)N(C)C)ccc1N1CCCC1	-16%	-3%
CCOC(=O)N1CCN(C(=O)C(C)NC(=O)c2ccco2)CC1 (configuration not stated)	-15%	-5%
O=C(CSC1=NCCN1)NC12CC3CC(CC(C3)C1)C2	-13%[1.46 µM]	-21%
Cn1ccnc1C1CCCCN1C(=O)c1cc(COc2ccc(F)cc2F)on1 (configuration not stated)	-8%	-7%
COc1cc(NC(=O)C(Cc2ccccc2)NS(=O)(=O)c2cccs2)cc(OC)c1 (configuration not stated)	-4%	-4%
C=CCNC(=S)NC1CC(C)(C)NC(C)(C)C1	-11%	-1%
Cc1cccc(-n2c(O)c(C=Nc3ccccc3)c3ccccc3c2=O)n1	-2%	-6%
Cc1ccc(CC2C(=O)N(c3cc(Cl)ccn3)C(=O)C2C)cc1 (configuration not stated)	i	-8%
CCC(CC)C(=O)Nc1c2c(nn1-c1ccc(C)cc1)CS(=O)(=O)C2	i	-16%
OCCC1CN(CCCc2ccccc2)CCN1CCc1ccccc1 (configuration not stated)	-7%	-1%
COc1ccc(NC(=O)CSc2nc(-c3ccccc3)nc3c2Cc2c(CO)cnc(C)c2O3)cc1Cl	-3%	-1%
COc1ccc(OCC(=O)Nc2ccc(-c3nc4cc(C)c(C)cc4o3)cc2)cc1	i	-16%
O=c1[nH]c(=O)n(-c2ccccc2F)c(O)c1/C=C1\C=Nc2ccccc21	-7%	?
COc1cccc(N2CCN(C(=O)CCn3nc(C)c(S(=O)(=O)N4CCCC4)c3C)CC2)c1	-10%	-10%
O=c1[nH]nc(Sc2ccccc2)c(=S)[nH]1	i	-10%
O=c1cccc(-c2ccc(Br)cc2)o1	nt	-7%
CCc1ccc(-n2c(=O)c3c(C)c(C)sc3n(CC(=O)NCC3CCCO3)c2=O)cc1 (configuration not stated)	-11%	15%
COc1ccc(OCCCC(=O)Nc2cccnc2)cc1	i	0%
O=C(OC1CCCCC1=O)c1cc(Cl)ccc1[N+](=O)[O-] (configuration not stated)	-6%	-4%
CC1(C)CC(=O)C(C=Nc2ccc3[nH]ncc3c2)=C(O)C1	?	-14%
COc1cccc(Cn2c(CNC(=O)Cc3cccc(C)c3)nc3cccnc32)c1	-9%	-9%
O=C(/C=C/c1ccco1)N(c1ccccn1)c1ccccn1	-5%	-2%
COc1ccc(NC(=O)C(C(C)C)N2Cc3ccccc3C2=O)cc1 (configuration not stated)	-13%	-17%
O=C(CSc1cn(CC(=O)N2CCCC2)c2ccccc12)Nc1ccccc1C(F)(F)F	-12%	-15%
CCN(CC)S(=O)(=O)c1cc(-c2ccc(=O)n(C(C)C(=O)Nc3cccc(C#N)c3)n2)ccc1C (configuration not stated)	-1%	-16%

Quoted from the listing.
For VACV mCherry inh, Cn1ccnc1C1CCCCN1C(=O)c1cc(COc2ccc(F)cc2F)on1 (configuration not stated) is entered as -8%
For VACV mCherry inh, CCOC(=O)N1CCN(C(=O)C(C)NC(=O)c2ccco2)CC1 (configuration not stated) is entered as -15%

(listing goes on)
SMILES	VACV mCherry inh	VACV Venus inh
COc1ccc(/C=C2\SC(=S)N(CCC(=O)N3CCOCC3)C2=O)cc1OC	-21%	-27%
Cc1ccc2c(c1)N(CC(=O)NCCCN1CCOCC1)C(=O)c1cccnc1O2	-12%	0%
Cc1nc(N2CCN(C(=O)c3ccco3)CC2)c(C#N)c2c1CCCC2	-13%	-15%
CCn1c(CNC(=O)c2ccco2)nnc1SCC(=O)Nc1cc(F)ccc1C	-21%	-10%
COc1cccc(N2CCN(C(=O)C3CCN(S(=O)(=O)c4ccc5c(c4)oc(=O)n5C)CC3)CC2)c1	13%[7.34 µM]	21%[7.34 µM]
Cc1cccc([C@@H]2[C@@H]3C(=O)N(Cc4ccccc4)C(=O)[C@@H]3[C@]3(Cc4ccc(Cl)cc4)C(=O)N(c4ccc(Br)cc4)C(=O)N23)c1	i	-5%
COC(=O)CCCC1=CC2=CC(=O)C(C)(OC(=O)c3cccs3)C(=O)C2=CN1CC1CC1 (configuration not stated)	9%	-7%
CC(C)C[C@H](NC(=O)Nc1cccc(C(F)(F)F)c1)C(=O)O	-16%	-1%
O=C(Cc1ccccc1)N/N=C/c1ccccc1OCc1ccc(Cl)cc1	i	-14%
COc1cc(C2c3c(oc4ccccc4c3=O)C(=O)N2Cc2ccccc2Cl)ccc1O (configuration not stated)	-4%	-2%
CCCCN(CCCC)S(=O)(=O)c1ccc2oc(C(=O)NCc3ccccc3)c(C)c2c1	i	-18%
O=C(O)c1cccc(NS(=O)(=O)c2ccc(NC(=O)c3ccco3)cc2)c1	-5%	-11%
O=[N+]([O-])c1cc(C(F)(F)F)cc([N+](=O)[O-])c1NN=C1CCCCC1	-17%	-10%
COc1ccc(S(=O)(=O)N2CCOCC2)cc1NC(=O)CCNC(=O)c1ccc(Br)cc1	-3%	10%
NCCCCCCNS(=O)(=O)c1cccc2ccccc12	26%	-8%
CN(C(=O)COc1ncnc2c1cnn2-c1ccccc1)C1CCCCC1	-4%	-11%
O=C(CCCOc1ccc(Cl)cc1Cl)NNC(=O)c1ccc(NC(=O)c2ccccc2)cc1	-14%	-15%
COc1ccc(OC)c(C(=O)CN2C(=O)NC(C)(c3ccccc3)C2=O)c1 (configuration not stated)	-27%	-23%
Cc1cc(NC(=O)Nc2ccc(Cl)c(Cl)c2)no1	-18%	-28%
CC(C)[C@@H](CO)NS(=O)(=O)c1ccc(Br)cc1F	-15%	0%
Cc1oc(-c2cccc(Cl)c2)nc1CSCC(=O)O	-14%	-19%&-2%
CCCn1c(=O)c(C(=O)NNS(=O)(=O)c2ccc(NC(=O)OC)cc2)c(O)c2ccccc21	-7%	8%
Cc1ccc2cc(CCNC(=O)c3ccc4c(c3)OCO4)c(=O)[nH]c2c1C	6%	-8%
COc1ccc2c(c1)-c1nc(-n3ncc(C(=O)NC(C)(C)CO)c3C3CC3)ncc1CC2	-18%	-1%
Cc1ccc(Cn2cc(C(=O)c3ccc(C)cc3)c(=O)c3ccc(C)nc32)cc1	-9%[7.34 µM]	-12%[7.34 µM]

Complete entries from above.
COc1cc(C2c3c(oc4ccccc4c3=O)C(=O)N2Cc2ccccc2Cl)ccc1O (configuration not stated) is listed with VACV mCherry inh = -4%; VACV Venus inh = -2%
O=C(CCCOc1ccc(Cl)cc1Cl)NNC(=O)c1ccc(NC(=O)c2ccccc2)cc1 is listed with VACV mCherry inh = -14%; VACV Venus inh = -15%
COc1cccc(N2CCN(C(=O)C3CCN(S(=O)(=O)c4ccc5c(c4)oc(=O)n5C)CC3)CC2)c1 is listed with VACV mCherry inh = 13%[7.34 µM]; VACV Venus inh = 21%[7.34 µM]

The results go on.
SMILES	VACV mCherry inh	VACV Venus inh
Cc1cccn2c(=O)c3cc(C(=O)N4CCN(C(=O)c5ccco5)CC4)n(C)c3nc12	-23%	-9%
CCN(CC)S(=O)(=O)c1ccc2oc(Nc3ccc(OC)cc3OC)nc2c1	-22%	-15%
CCOC(=O)c1cnc(-n2nc(C)cc2C)nc1NCCc1ccccc1	?	?
FC(F)(F)c1ccccc1-c1nc(Nc2ccncc2)c2ccccc2n1	i	0%
CCc1ccc(N2C(=O)CN(Cc3cccs3)C2=S)cc1	-4%	-2%
O=C(CN1CCCCC1)N1CCc2ccccc21	i	-6%
COc1cc(C)ccc1Oc1nc(-c2ccccc2O)nc2ccccc12	-18%	-19%
CCOC(=O)[C@@H]1[C@H]2COc3ccc(Br)cc3[C@H]2N2C(=O)N(c3ccc(Br)cc3)C(=O)[C@]12C	i	-7%
O=C(Cc1cccs1)N/N=C/C(Cl)=C/c1ccccc1	i	4%
C/C=C/C(=O)OCC(=O)Nc1nc2ccc(C)cc2s1	nt	?
O=C(c1cc(S(=O)(=O)N2CCOCC2)ccc1Cl)N1CCOCC1	-9%	3%
Cc1c(NC(=O)c2cc3c(s2)CCCC3)c(=O)n(-c2ccccc2)n1C	i	-11%
CN1C(=O)CC(C(=O)O)SC1=Nc1cc(Cl)cc(Cl)c1 (configuration not stated)	i	-5%
COc1ccc(/C=N/Nc2nc(N3CCCC3)nc(N3CCCC3)n2)c(OC)c1OC	-14%	-1%
O=S(=O)(c1ccc2nc(SCc3ccc(Cl)cc3)[nH]c2c1)N1CCOCC1	-10%	?
CN(CC(=O)NC(=O)NC1CCCCC1)CC(=O)Nc1ccc(OC(F)(F)F)cc1	?	-25%
O=c1c2[nH]c3ccccc3c2nc(SCc2cccc(F)c2)n1-c1ccccc1	-29%	-22%
C#CCOCCOCCOCCNc1nc(N2CCN(C(=O)CCCCCCCCCCNC(=O)[C@H](CCCCN)n3cc(C)nn3)CC2)nc(N2CCN(C(=O)CCCCCCCCCCNC(=O)[C@@H]([C@H](C)O)n3cc(C)nn3)CC2)n1	?	11µM*
O=C(CCC(=O)N1Cc2ccccc2Oc2ncccc21)NCc1ccccc1Cl	-11%	-10%
Cc1occc1C(=O)NNC(=O)Cc1ccccc1	-13%	5%
COc1ccc(NC(=S)NCCc2ccc(F)cc2)c(OC)c1	i	8%
COC(=O)[C@@]1(C)[C@H]2C(=O)N(Cc3ccccc3)C(=O)[C@H]2[C@H]2CN=C(SCC(=O)c3ccccc3)N21	-30%	-7%
COc1ccc(-n2nc(C)c3c(C(F)(F)F)cc(-c4cccnc4)nc32)cc1	-15%	-7%
CCOC(=O)c1ccccc1NC(=O)CSc1nnc(C(C)C)n1CC	-8%	-12%
Cc1ccc(C2(C)CC(C)(C)N(C(=O)CSc3nnc(C)s3)c3ccccc32)cc1 (configuration not stated)	-22%	-19%

As a working copy, 2 of the compounds above:
SMILES	VACV mCherry inh	VACV Venus inh
CCOC(=O)c1ccccc1NC(=O)CSc1nnc(C(C)C)n1CC	-8%	-12%
Cc1ccc(C2(C)CC(C)(C)N(C(=O)CSc3nnc(C)s3)c3ccccc32)cc1 (configuration not stated)	-22%	-19%

(more compounds)
SMILES	VACV mCherry inh	VACV Venus inh
CC(C)(C)C(=O)OCc1cc(=O)n2nc(C3CC3)sc2n1	-10%	-6%
Nc1nc(SCC(=O)O)[nH]c(=O)c1NC(=O)c1ccccc1F	i	0%
COc1ccccc1C(=O)O/N=C(/C)c1ccc(N2C(=O)C3CCCCC3C2=O)cc1 (configuration not stated)	i	-12%
Cc1ccc(C(NC(=O)C2CCN(CCOc3ccc(Cl)cc3Cl)CC2)c2ccccn2)cc1 (configuration not stated)	i	?
O=S1(=O)N=CN(Cc2cccc(F)c2)c2ccccc21	-14%	?
COc1cccc(CNC(=O)[C@@H]2CCCN2C(=O)[C@@H]2CCCN2C(=O)c2cccc3ccccc23)c1	-4%	-5%
O=C(Nc1ccc2[nH]ccc2c1)c1ccccc1	-1%[7.34 µM]	0%[7.34 µM]
COc1cccc(CC(=O)Nc2nc(C)cs2)c1	i	-10%
COc1cccc(-c2nc(-c3ccccc3)nc(N3CCN(C)CC3)c2C#N)c1	-12%	?
CCCc1noc(-c2ccc(N3CCCCC3)c([N+](=O)[O-])c2)n1	-1%	13%
COCCSc1nnc(NC(=O)CCS(=O)(=O)c2ccccc2)s1	?	-28%
CCCCOc1ccc(C2=NC(c3cccs3)=Nc3ccc(OC)cc3N2)cc1	-16%	-10%
c1ccc(CSc2ncnc3c2ncn3C2CCCCO2)cc1 (configuration not stated)	10%	2%
Cc1ccccc1NC(=S)N=Nc1c(O)n(C)c2ccc(S(=O)(=O)N3CCOCC3)cc12	-14%	-23%
O=C(NCCN1CCN(C(=O)c2cccc(Br)c2)CC1)C(=O)NCc1ccccc1	-19%	-18%
COc1ccc(-n2c(C)cc3cc(OC(C)=O)ccc32)cc1	-25%	-17%
COC(=O)[C@H](Cc1ccccc1)NC(=O)c1ccc2ccccc2n1	-18%	-26%
Cc1ccc(N2CC(C(=O)Nc3cc(C)on3)CC2=O)c(C)c1 (configuration not stated)	27%	-1%
Cc1ccc2nc(SCC(=O)Nc3ccc(F)cc3)nc(=O)n2c1	-12%	-15%
O=C(Nc1ccc(-c2nc3c(ccc4ccccc43)o2)cc1)c1ccco1	-19%	?
Cc1ccc(S(=O)(=O)N2C[C@H]3C(=O)C[C@@H](c4ccc(Cl)cc4)N(S(=O)(=O)c4ccccc4C)[C@H]3C[C@H]2c2ccccc2)cc1	i	-20%
COC(=O)c1cc2ccsc2n1CC(=O)Nc1cc(C)cc(C)c1	-11%	-2%
Cc1cc(C)n(CC(=O)NNC(=O)CCNC(=O)c2ccccc2Cl)n1	-6%	-7%
CNc1ncnc2c1ncn2[C@H]1CN(Cc2ccc3c(c2)OCO3)C[C@@H](CO)O1	11%	-4%
O=C(CC1NCCc2ccccc21)Nc1cccc(Cl)c1 (configuration not stated)	-10%	-12%

Next structures follow:
SMILES	VACV mCherry inh	VACV Venus inh
CCn1c2ccccc2c2cc(Nc3cc(C)nc4ncnn34)ccc21	?	?
Cc1ccccc1-n1c(SC/C(O)=C(\C#N)c2nc3ccccc3[nH]2)nnc1-c1ccncc1	0%	5%
CCc1nnc(NC(=O)c2ccccc2NC(=O)C2CCN(C(=O)c3ccco3)CC2)s1	?	?
O=C(COC(=O)c1ccccc1Cl)Nc1nccs1	i	-9%
COc1ccc(N2C(=O)C(Cl)=C(Oc3cccc(OC)c3)C2=O)cc1	i	7%
COc1cccc(-n2c(SCc3ccccn3)nc3c(c2=O)SCC3)c1	-6%	-17%
N#Cc1c(NC(=O)C2C3C=CC(C3)C2C(=O)O)sc2c1CCCCC2 (configuration not stated)	?	-10%
Cc1ccccc1NC(=O)CN1C(=O)S/C(=C\c2cccn2-c2cccc(C(=O)O)c2)C1=O	nt	11%
Cc1ccnc(NC(=O)c2cccc(NC(=O)c3ccc(Cl)cc3)c2)c1	3%	-16%
O=C(CCC1(C(=O)O)CCC(=O)NC1)NCc1ccccc1 (configuration not stated)	-8%	0%
CN(C)C(/C=C/Nc1ccccc1F)=C(C#N)C#N	i	-5%
